Source: PubChem
PKD1 kinase inh = inhibitors of human PKD1 kinase | Q15139 | PKD1 kinase fluorescence polarization assay | inhibition, %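 (about 10 µM by stock and volumes)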 | 200,000 tested, 0.056% active | AID 797;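 active = inhibition of 50% or more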;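 also: controls were vehicle for no effect and a reference inhibitor for full effect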
INS promoter inh = TRM-6 insulin promoter activity inhibition. TRM-6 cells (human fetal islet line), insulin promoter-eGFP reporter, imaging; reporter expression induced with tamoxifen. inhibition, % at 2 µM. 130,000 tested, 0.9% active. AID 1273;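 active = inhibition above the mean plus 3 SD, with well images judged a real hit on visual review, cut at about 60% in these data, passing the limit was not always enough; inconclusive = inhibition over the cutoff but images rejected on review; inactive = inhibition not above the cutoff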
RGS16-Gao HTS = RGS16-Galphao interaction regulator (human). O15492+P09471. bead-based flow cytometry RGS16-Galphao binding, fluorescence; actives lie on both sides. binding response (% of control), % at 10 µM. 220,000 tested, 0.38% active. AID 1441;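 active = below 25% or above 175%, edge rows of some plates excepted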;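 also: Galphao activated by GDP with aluminum fluoride before binding; 100% = wells without compound and 0% = beads without RGS; some results beyond the cut were filed as inactive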
Target sequence (O15492 whole entry, looked up): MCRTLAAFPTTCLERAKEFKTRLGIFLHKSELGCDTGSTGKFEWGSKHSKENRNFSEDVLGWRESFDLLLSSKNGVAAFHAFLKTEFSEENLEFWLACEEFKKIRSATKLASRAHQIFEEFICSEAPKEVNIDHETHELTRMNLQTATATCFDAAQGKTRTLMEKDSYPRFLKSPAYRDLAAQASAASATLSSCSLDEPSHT
Target sequence (P09471 whole entry, looked up): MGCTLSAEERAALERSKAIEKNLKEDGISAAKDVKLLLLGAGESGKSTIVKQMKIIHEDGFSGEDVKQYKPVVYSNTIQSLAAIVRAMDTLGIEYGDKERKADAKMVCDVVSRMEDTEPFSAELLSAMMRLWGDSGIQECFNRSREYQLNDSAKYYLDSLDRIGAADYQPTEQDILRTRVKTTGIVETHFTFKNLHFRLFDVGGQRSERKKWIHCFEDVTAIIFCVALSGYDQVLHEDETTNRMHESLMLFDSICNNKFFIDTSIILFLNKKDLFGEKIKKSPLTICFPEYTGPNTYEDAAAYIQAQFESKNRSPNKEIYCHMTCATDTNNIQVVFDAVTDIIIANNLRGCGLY
GALR2 ag = GALR2 (human) receptor agonism; O43603; GALR2-expressing cells, agonist activation read-out; activation, %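 (tested at 5 µM)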; 140,000 tested, 0.48% active;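 active = above mean plus 3 SD of all compounds, about 5% in these data, not always enough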;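 also: 0% = vehicle buffer wells and 100% = reference agonist at full effect; tested in CHO reporter cells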
Target sequence (O43603 whole entry, looked up): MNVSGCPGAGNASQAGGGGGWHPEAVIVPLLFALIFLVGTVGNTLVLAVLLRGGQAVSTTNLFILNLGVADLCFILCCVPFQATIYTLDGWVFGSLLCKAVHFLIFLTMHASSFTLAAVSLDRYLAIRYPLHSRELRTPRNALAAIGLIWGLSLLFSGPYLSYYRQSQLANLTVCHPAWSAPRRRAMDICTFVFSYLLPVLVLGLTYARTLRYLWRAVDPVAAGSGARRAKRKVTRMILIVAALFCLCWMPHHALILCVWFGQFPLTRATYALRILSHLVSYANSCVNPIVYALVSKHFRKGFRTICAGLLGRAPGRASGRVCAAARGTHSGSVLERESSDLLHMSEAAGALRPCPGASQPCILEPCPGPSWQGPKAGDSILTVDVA
HSV augment = increases HSV replication in cells | 220,000 tested, 0.005% active | AID 1956 | maximum fold increase | HSV replication augmentation in cells, fold increase;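 active = peak rise of 1.5-fold or more in the series; inconclusive = self-fluorescent or not available for retest; tested in PC3 cells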;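 also: first round at 10 µM; read as green reporter fluorescence; hits show the peak of a series up to 25 µM; 1 = signal of infected wells without compound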
INS promoter inh cell count = further read-out of INS promoter inh, marked with its call; normalized cell count, %; measured here: cell count, toxicity; reference of the scale not given here;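 cells exposed to compound for 48 h; stained nuclei by imaging scaled within each plate; lower means fewer cells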
HSV augment primary fold = further read-out of HSV augment, marked with its call; fold increase; compound at 10 µM; measured here: primary screen fold increase 10 uM; tested in PC3 cells;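 GFP signal in the first replicate; 1 = infected wells without compound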
* = called active by the depositor; i = inactive; ? = inconclusive; . = not tested or not shown.

Each structure is followed by: PKD1 kinase inh, INS promoter inh, INS promoter inh cell count, RGS16-Gao HTS, GALR2 ag, HSV augment, HSV augment primary fold
1	N=c1oc2cc(O)ccc2cc1C(=O)Nc1nc2ccccc2s1
    3, ., ., 101, 25*, i, 1.3
2	CCc1c(C#N)c(SCCC(=O)Nc2ccc(F)cc2)nc2c1C(=O)CC(C)(C)C2
    -2, -5, 146, 83, 1.0, i, 0.98
3	CC(Sc1nnc(COc2ccc([N+](=O)[O-])cc2)n1-c1ccccc1)C(=O)O (stereo not given)
    0, ., ., 52, ., i, 1.1
4	Cc1cc(C)n2nc(C(=O)Nc3ccn(Cc4ccccc4C)n3)cc2n1
    ., ., ., 107, ., i, 1.2
5	COc1ccc2[nH]c(=O)c(CN(CCN3CCCC3)C(=O)Nc3ccccc3Cl)cc2c1
    ., ., ., 99, ., i, 0.95
6	Cc1cccc2c(SCC(=O)NCC3CCCO3)nc(-c3ccc(F)cc3)nc12 (stereo not given)
    -12, 23, 130, 102, -2.4, i, 1.1
7	CCn1c(C)nc2cc(C(=O)NNC(=S)Nc3ccccc3)ccc21
    2, -6, 86, 102, ., i, 1.1
8	O=C(N/N=C/c1sc2ccccc2c1O)c1cccc2ccccc12
    -8, -3, 42, 82, -0.6, i, 1.2
9	O=[N+]([O-])c1cc(S(=O)(=O)N2CCCCC2)ccc1NCc1cccc(Cl)c1
    -4, ., ., 102, -0.4, i, 1
10	O=C(NC(Cc1ccccc1)C(=O)NC(Cc1ccccc1)C(=O)O)c1ccccc1 (stereo not given)
    -9, ., ., 105, ., i, 0.98
11	Cc1ccc(CNC(=O)/C=C/c2ccc(Br)o2)cc1
    -8, ., ., 95, 0.2, i, 1
12	CCOc1cc(S(=O)(=O)N2CCN(Cc3ccccc3)CC2)ccc1Br
    0, 20, 92, 100, -2.0, i, 0.89
13	c1cnc(Oc2ccc(-c3nnco3)cc2)cn1
    1, ., ., 117, -0.3, i, 0.99
14	CC(=O)Nc1ccc(S(=O)(=O)Nc2nc(C)cc(-n3nc(C)cc3C)n2)cc1
    -2, -16, 156, 108, -0.5, i, 0.98
15	CNC(=S)NCc1ccc(OC)cc1
    1, 24, 81, 96, -0.2, i, 0.99
16	Cc1ccc(N2CC(C(N)=O)CC2=O)cc1 (stereo not given)
    -2, ., ., 91, 0.0, i, 0.52
17	COc1ccccc1C1(CC(=O)N2CCCCC2)CCOC(C(C)C)C1 (stereo not given)
    1, -69, 56, 108, -2.9, ., .
18	CCN1CCOC(CC(=O)Nc2cccc([N+](=O)[O-])c2)C1=O (stereo not given)
    ., ., ., 108, ., i, 0.93
19	CN1CCN(S(=O)(=O)c2cccc(S(=O)(=O)c3ccc(Cl)c(Cl)c3)c2)CC1
    -7, ., ., 100, -1.9, i, 1
20	O=C(Nc1ccccc1)/C(=C/c1ccccc1)c1ccccc1
    -3, -41, 106, 107, -0.1, i, 1.1
21	COC(=O)c1ccc(OCC(=O)Nc2nn(-c3ccccc3)nc2C(N)=O)cc1
    3, 35, 114, 94, -1.6, i, 0.88
22	CCOC(=O)Cc1csc(NC(=O)CSc2nc3cccnc3n2CC)n1
    -8, -14, 168, 76, -1.0, ., .
23	O=C(O)CCCNC(=O)c1cncc(O)c1
    -3, ., ., 102, -4.8, i, 0.99
24	CC1(C)C(c2ccccc2)=NC(c2ccc(Br)cc2)N1O (stereo not given)
    -2, ., ., 106, ., i, 1.1
25	CCOc1ccc(N2C(=O)Nc3ccccc3C2(O)C(=O)NCc2ccccc2)cc1 (stereo not given)
    4, 0, 109, 102, ., i, 0.93
26	COc1ccc(C(CC(=O)O)NS(=O)(=O)c2ccc(C)cc2)cc1OC (stereo not given)
    -1, ., ., 13*, -1.5, i, 0.88
27	COc1cc(C(=O)N/N=C(\C)Cc2ccccc2)cc(OC)c1OC
    -12, -68, 11, 107, 0.1, i, 0.68
28	O=S(=O)(Nc1ccccn1)c1ccc(Oc2ccccc2)cc1
    1, -80, 137, 103, -1.4, i, 0.9
29	CC(=O)Nc1cccc(NS(=O)(=O)Cc2ccc(Cl)cc2)c1
    -2, -169, 96, 103, -1.3, i, 1.1
30	S=C(c1ccc(N2CCOCC2)cc1)N1CCOCC1
    -5, 15, 105, 99, -2.0, i, 0.88
31	Cc1ccccc1C(=O)N(C)Cc1ccccc1
    -9, -10, 194, 102, -2.7, i, 1.1
32	O=[N+]([O-])c1ccc(N2CCN(S(=O)(=O)c3ccccc3[N+](=O)[O-])CC2)cc1NCc1cccnc1
    -1, -7, 135, 102, -0.2, i, 0.91
33	CCOc1cc(NC(=S)NCC(C)C)c(OCC)cc1NC(=O)c1cccs1
    9, 7, 67, 141, -0.8, i, 0.91
34	COCCSc1ccccc1C(=O)Nc1nccs1
    -11, 61, 52, 98, 0.3, i, 0.84
35	Cc1cnn(-c2cc(N/N=C/c3ccccc3F)ncn2)c1
    -4, 21, 84, 87, -0.4, ., .
36	CCOC(=O)C(NC(C)=O)(Nc1ccc(S(=O)(=O)Nc2onc(C)c2C)cc1)C(F)(F)F (stereo not given)
    8, ., ., 89, -1.4, i, 0.92
37	O=C(O)c1ccc(NC(=O)C2(c3ccccc3)CCCC2)cc1
    ., ., ., 102, ., i, 1
38	CC(=O)Oc1cccc2c1C(=O)c1c(OC(C)=O)cc(C(=O)O)cc1C2=O
    -15, 55, 75, 125, -1.9, i, 0.97
39	Cc1ccc2nc(-c3ccc(NS(C)(=O)=O)cc3)cc(-c3ccccc3)c2c1
    -15, 3, 129, 88, -1.5, i, 1
40	N#C/C(=C\Nc1ccccc1SC(F)(F)F)c1nc(-c2ccc(F)cc2)cs1
    -4, -11, 79, 160, -1.6, i, 0.99
41	COc1ccc(-c2noc(CN(C(=O)C(C)(C)C)C(C)C)n2)cc1
    -6, -18, 90, 102, -1.0, i, 0.83
42	CN1CCc2cc3c(c4c2[C@H]1[C@H](O)c1ccccc1-4)OCO3
    -2, 14, 98, 96, 0.9, i, 0.64
43	COc1ccc(-c2cc(C(=O)N3CCN(c4ccccc4OC)CC3)no2)cc1OC
    -8, ., ., 100, ., i, 0.77
44	CCOC(=O)Cc1sc(N)nc1C
    -3, -17, 89, 118, -1.0, i, 0.95
45	COCC(C)n1c(C)cc(C(=O)COC(=O)c2oc3ccccc3c2C)c1C (stereo not given)
    6, 33, 89, 85, -2.6, i, 0.97
46	CC(C)[C@H](NC(=O)CCn1nnc2ccccc2c1=O)C(=O)O
    -8, -14, 55, 88, 1.2, i, 0.89
47	N#Cc1ccc(C(=O)Nc2nnc(-c3cccs3)o2)cc1
    -3, ., ., 97, ., ., .
48	O=C(CN1CC(c2ccccc2)CC1=O)N/N=C/c1cc(Br)ccc1O (stereo not given)
    -1, -3, 92, 68, 0.4, i, 0.9
49	Cc1cc(C(=O)Cn2nc(C(=O)O)c3ccccc3c2=O)c(C)n1CC(F)(F)F
    -1, -5, 67, 94, ., i, 0.9
50	CCC(CC)C(=O)c1c[nH]c(C(=O)NCCCn2ccnc2)c1
    -5, 3, 111, 104, -0.8, i, 0.98
51	Cc1ccsc1C1C=C(c2cccc(Br)c2)Nc2ncnn21 (stereo not given)
    -11, ., ., 102, -0.1, ?, .
52	COc1ccc(C)cc1NC(=O)NC1CCN(Cc2ccccc2)CC1
    3, 42, 131, 89, 0.2, i, 0.72
53	CC1=CC(C)(C)N(C(=O)CSc2nnc(-c3ccccc3)o2)c2ccc(C)cc21
    7, ., ., 136, -2.5, i, 0.7
54	Cc1cc(C)c(C#N)c(Oc2ccc(O)cc2)n1
    5, -114, 74, 104, -1.4, i, 0.93
55	CCc1nc(SCC(=O)c2cccc([N+](=O)[O-])c2)n[nH]1
    -13, 11, 51, 99, -0.2, i, 0.96
56	COCc1cccc(NC(=O)Cc2cccc3ccccc23)c1
    -4, ., ., 106, ., i, 1
57	CCn1c(C)nc2cc(C(=O)N=Nc3c(O)[nH]c4ccccc34)ccc21
    -11, -36, 72, 107, -2.4, i, 0.97
58	O=C(CNS(=O)(=O)c1ccc(Br)s1)NCc1ccc2c(c1)OCO2
    -4, 30, 113, 102, -1.6, i, 1.1
59	COc1cc2nc(C3CCC3)n(NC(=O)C3CCC3)c(=O)c2cc1OC
    -3, -24, 115, 136, -1.6, i, 1.1
60	CCOC(=O)CNC(=S)N(Cc1cccs1)C1CCCC1
    -6, 3, 140, 103, 0.1, i, 0.99

Rewritten bar-delimited: 4 of the compounds above
No. | molecule | PKD1 kinase inh | INS promoter inh | INS promoter inh cell count | RGS16-Gao HTS | GALR2 ag | HSV augment | HSV augment primary fold
44 | CCOC(=O)Cc1sc(N)nc1C | -3 | -17 | 89 | 118 | -1.0 | i | 0.95
45 | COCC(C)n1c(C)cc(C(=O)COC(=O)c2oc3ccccc3c2C)c1C (stereo not given) | 6 | 33 | 89 | 85 | -2.6 | i | 0.97
46 | CC(C)[C@H](NC(=O)CCn1nnc2ccccc2c1=O)C(=O)O | -8 | -14 | 55 | 88 | 1.2 | i | 0.89
47 | N#Cc1ccc(C(=O)Nc2nnc(-c3cccs3)o2)cc1 | -3 | . | . | 97 | . | . | .

Single values from above:
Value of Cc1cccc2c(SCC(=O)NCC3CCCO3)nc(-c3ccc(F)cc3)nc12 (stereo not given) in PKD1 kinase inh: -12
Value of Cc1ccc2nc(-c3ccc(NS(C)(=O)=O)cc3)cc(-c3ccccc3)c2c1 in RGS16-Gao HTS: 88

(listing goes on)
Each structure is followed by: PKD1 kinase inh, INS promoter inh, INS promoter inh cell count, RGS16-Gao HTS, GALR2 ag, HSV augment, HSV augment primary fold
61	O=C(NCc1ccc2c(c1)OCO2)C1CCN(c2nccc(C(F)(F)F)n2)CC1
    ., ., ., 98, ., i, 1.1
62	Cc1ccc(Cn2cnc3c(cnn3C(C)(C)C)c2=O)cc1
    3, ., ., 99, ., i, 0.93
63	CCOc1ccc(CCNC(=O)C2CCN(S(=O)(=O)N3CCCCC3)CC2)cc1OCC
    -7, -11, 79, 114, -1.6, i, 0.99
64	CCCOc1ccc(C(=O)Nc2c[nH]c(=O)[nH]c2=O)cc1
    9, ., ., 103, -0.3, i, 1.1
65	COc1ccc(/C=C2/SC(=O)N(CCCCCC(=O)Nc3ccccc3C(=O)O)C2=S)cc1
    -3, 11, 118, 99, ., i, 0.92
66	COc1cc(NC(=O)Cc2ccccc2OC)cc(OC)c1
    -1, -435, 56, 101, -1.3, i, 0.95
67	Cc1ccc(C)n1-c1ccc(C(=O)NN=C2CCCC2)cc1
    -7, 9, 78, 99, ., i, 1
68	Cc1ccc(Nc2nnc(SCC(=O)NCc3ccco3)s2)cc1
    -5, -2, 95, 97, -0.4, i, 0.91
69	O=c1cc(CN2CC(O)Cc3ccc4ccccc4c32)nc2sccn12 (stereo not given)
    -1, ., ., 104, ., i, 1.1
70	CCOC(=O)c1sc(Nc2ccc(OCC)cc2)nc1C
    -12, ., ., 108, ., i, 0.94
71	O=C(NCCC1=CCCCC1)c1ccc(Cl)c(S(=O)(=O)Nc2ccccc2)c1
    -2, 4, 77, 103, -1.5, i, 0.89
72	COc1cc(/C=N/n2cnnc2-n2nc(C)cc2C)cc([N+](=O)[O-])c1O
    ., ., ., 102, ., i, 1.2
73	O=C(/C=C/c1ccc(Cl)cc1Cl)N1CCc2ccccc21
    7, ., ., 98, -0.5, i, 0.97
74	COc1ccc(C(=O)C[n+]2ccc3c(c2)nnn3-c2ccccc2)cc1
    4, -46, 112, 105, ., i, 0.92
75	COc1cc(O)ccc1/C=N/NC(=O)c1ccc([N+](=O)[O-])cc1
    1, ., ., 101, ., i, 0.99
76	CC(=O)NCc1nc2ccccc2n1Cc1ccccc1C
    -6, ., ., 99, -3.3, i, 0.83
77	CC(C)(C)CN1CCNC(=O)C1CC(=O)NCCc1ccccc1F (stereo not given)
    -4, 39, 64, 103, ., i, 1
78	CCOc1ccc(NC(=O)CN(C)S(=O)(=O)c2cccs2)cc1
    5, -39, 155, 102, -2.9, i, 0.92
79	CCOC(=O)N1CCOCCOCCN(C(=O)OCC)CCOCC1
    -16, ., ., 91, 0.7, i, 0.97
